EPAC2 antag – human EPAC2 antagonism, validation. Q8WZA2. EPAC2 Rap1B BODIPY-GDP exchange, fluorescence. Potency, µM (titrated, usually from 112 µM), for the others: top-dose activity, negative = inhibition, most hits filed as inhibitors. hit rate 1.7% among 16,000; active means well fitted inhibition curve with a large enough effect; inconclusive means small, poorly fitted or top-dose-only effect; inactive means no such curve, though single readings can be large or run the other way;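 further: 100% = activation by cAMP agonist control; nearly all actives have a fitted effect of over 40% in size; the record reuses the description of the EPAC1 agonist screen; inactives centre near -10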
Target sequence (Q8WZA2 whole entry, looked up): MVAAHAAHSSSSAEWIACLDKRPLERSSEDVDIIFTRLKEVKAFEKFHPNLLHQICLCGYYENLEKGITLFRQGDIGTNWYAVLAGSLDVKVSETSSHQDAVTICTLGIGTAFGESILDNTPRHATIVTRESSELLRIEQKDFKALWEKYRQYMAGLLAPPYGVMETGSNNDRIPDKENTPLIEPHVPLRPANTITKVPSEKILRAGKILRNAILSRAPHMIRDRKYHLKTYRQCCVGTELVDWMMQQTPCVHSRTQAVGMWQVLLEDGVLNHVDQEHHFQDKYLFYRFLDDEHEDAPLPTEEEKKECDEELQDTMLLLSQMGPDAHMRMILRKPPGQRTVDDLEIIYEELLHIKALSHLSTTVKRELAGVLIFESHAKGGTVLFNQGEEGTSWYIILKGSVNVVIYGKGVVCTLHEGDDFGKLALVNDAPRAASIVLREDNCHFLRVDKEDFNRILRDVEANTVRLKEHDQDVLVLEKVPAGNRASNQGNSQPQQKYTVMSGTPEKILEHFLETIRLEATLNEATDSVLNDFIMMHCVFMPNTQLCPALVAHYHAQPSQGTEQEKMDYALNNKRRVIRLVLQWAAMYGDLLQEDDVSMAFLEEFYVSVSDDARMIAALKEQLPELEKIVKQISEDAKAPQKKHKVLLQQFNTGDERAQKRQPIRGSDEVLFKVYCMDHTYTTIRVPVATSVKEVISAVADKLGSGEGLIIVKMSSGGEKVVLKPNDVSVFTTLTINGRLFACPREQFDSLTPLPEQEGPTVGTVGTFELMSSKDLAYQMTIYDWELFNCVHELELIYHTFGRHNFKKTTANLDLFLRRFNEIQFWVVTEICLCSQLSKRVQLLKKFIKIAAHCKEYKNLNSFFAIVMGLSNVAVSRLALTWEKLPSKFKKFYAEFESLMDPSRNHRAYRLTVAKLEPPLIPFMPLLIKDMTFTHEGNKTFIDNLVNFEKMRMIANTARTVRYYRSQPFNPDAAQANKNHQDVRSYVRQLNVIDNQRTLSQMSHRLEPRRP
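Fluorescent exchange read-out: 100 nM EPAC2 with 250 nM RAP1B–BODIPY-GDP and 50 uM GDP; BODIPY-GDP release lowers fluorescence. Read at 480/540 nm every 5 min for 30 min at room temperature; normalized to 6.5 mM cAMP.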
An asterisk follows results filed as active; ? = inconclusive; & = joins results of further samples; [ ] = remark or other dose. Potency means the concentration at half of the fitted maximal effect. Only part of the results is shown; count on the stated rates, not on these rows.

SMILES	EPAC2 antag
COc1c(C=O)c(=O)[nH]c2c(OC)cccc12	24%
CN(C)c1ccc(/C=[N+]2\C(=O)CC(=O)NC2=O)cc1	11%
N#CCCn1c(=O)c(-c2cc(F)cc(F)c2)nc2cnc(Nc3ccccc3)nc21	-19%
O=S1(=O)[C@H]2C[C@@H]3C=C[C@@]2(CN1Cc1cccc(C(F)(F)F)c1)O3	-12%
COc1ccc2c(c1OC)C(=O)N1c3ccccc3C(=O)OC21 (stereo unspecified)	3%
CC(C)c1c(C(=O)N2CCCCC2c2cccnc2)cnn1-c1nccc(-c2cccs2)n1 (stereo unspecified)	-3%
O=C(c1ccco1)N1CCC2(CCCN(c3ccccc3)C2)CC1	?
O=C(Cc1ccc2c(c1)OCO2)N1CCOc2ccc(CN3CCOCC3)cc2C1	12%
Cc1cc2c(c(-c3cnccn3)c1)OC(CNC(=O)C1CCCN(C)C1)C2 (stereo unspecified)	?
O=C(O)c1cccc(/C=C2/C[C@@H]3[C@@H](/C=C/[C@@H](O)C4CCCCC4)[C@H](O)C[C@@H]3O2)c1	3%
COc1ccccc1CN1CCC2(CCNCC2)CC1	-21%
NC(=Nc1ccccc1)NC(=O)c1nc(Cl)c(N)nc1N	10%
c1cncc(CNc2cc(-c3ccoc3)ncn2)c1	-5%
COc1ccc(CNC(=O)C[C@H]2C(=O)N(Cc3ccccc3)C[C@@H]2Cc2ccccc2)cc1	-14%
COc1cccc(-c2cncnc2NCc2ccccc2)c1	-8%
O=C(OC1Cc2c(O)cc(O)cc2OC1c1cc(O)c(O)c(O)c1)c1cc(O)c(O)c(O)c1 (stereo unspecified)	-6%
C[C@@H](CSc1ccccc1)CN1CC[C@H](NC(=O)OCc2ccccc2)CCC1=O	?
CC(C)CN1CC2(CCN(C(=O)c3csnn3)CC2)C1	-26%
CSc1ncccc1C(=O)N1CCOc2ccc(C(C)(O)CCn3cccn3)cc2C1 (stereo unspecified)	-8%
COC(=O)c1cc(CNC(=O)c2cccc(C)c2)cc(NC(=O)c2ccncc2)c1	4%
CCCCCCCCCCCCCCCC(=O)OC[C@H](COP(=O)([O-])OCC[N+](C)(C)C)OC(=O)CCCCCCCCCCCCCCC	-10%
Nc1c(CC(=O)O)cccc1C(=O)c1ccccc1	-6%&17%
COc1ccc2c(c1)C[C@]1(C)c3ccccc3C(=O)N(Cc3ccccc3)[C@H]21	?
CCCCCCCCCCCCCCCCCCOC[C@H](COP(=O)([O-])OCC[N+](C)(C)C)OC(C)=O	-28%[11.4 µM]
O=c1cc(-c2cccc(O)c2)oc2cc(O)ccc12	?
O=C(/C=C/c1ccccc1)c1ccc(O)cc1O	?
COc1ccc(-n2c(CCNC(=O)c3ccc(-c4cccc(F)c4)cc3)nnc2SC)cc1	-13%
COc1ccc(-n2c(CNC(=O)c3cc(C(F)(F)F)ccc3Cl)nnc2SC)cc1	-10%
COCC(=O)N1CCC2(CCN(Cc3ccccc3)CC2)CC1	-7%
O=C(O)CCCCC(=O)O	-28%
CC(C)NC(=O)N1CC[C@@]2(CCCN(S(C)(=O)=O)C2)C1	-6%
CC(=O)NCCNc1ncnc2ccc(-c3ccc(C(=O)N(C)C)cc3)cc12	-13%
O=c1cc(-c2ccc(O)c(O)c2)oc2cc(O)cc(O)c12	-16%&-24%
C[C@@H]1/C(=N/O)CC2C[C@@H]1C2(C)C	-24%
NC(C(=O)O)c1ccc(P(=O)(O)O)cc1 (stereo unspecified)	3%
CCCc1nc2cccnc2n1C1CCN(C(=O)Cn2nccc2C)CC1	-29%
CN1CCC2(CC1)CCN(S(=O)(=O)c1ccccc1)CC2	-16%
Cc1ccc(C(C)C)cc2c(C)ccc1-2	-15%&-7%
CCCCCCCCCC(=O)N[C@H](CN1CCOCC1)[C@H](O)c1ccccc1	-13%[11.4 µM]
CS(=O)(=O)c1ccc(-c2nc(-c3ccc(F)cc3)c(-c3ccncc3)[nH]2)cc1	-12%[151 µM]
COc1ccc(Oc2ncc3nc(-c4ccc(F)cc4)c(=O)n(Cc4cccs4)c3n2)cc1	-11%
COc1ccc(C(=O)C[n+]2cccc3cccc(O)c32)cc1	-16%
COc1ccc(NC(=O)N2CCCC3(CCN(C(=O)c4cc(C(F)(F)F)cc(C(F)(F)F)c4)CC3)C2)cc1	?
Cc1cc2c(c(-c3cnccn3)c1)OC(CNC(=O)c1c(F)cccc1Cl)C2 (stereo unspecified)	-6%
COc1c2c(cc3c1C(c1c(O)c4ccccc4oc1=O)N(C)CC3)OCO2 (stereo unspecified)	-17%
Cc1cc(C(=O)Nc2cccc(-c3nc(CNC(=O)c4ccccc4C(F)(F)F)c(C)o3)c2)c(C)o1	-17%
CN(CCCN1c2ccccc2CCc2ccccc21)CC(=O)c1ccc(Cl)cc1	-6%
COCC(=O)N1CCC2(CC1)CN(c1cccc(-c3ccccc3)c1)C2	?
C=CS(=O)(=O)N(Cc1ccccc1)[C@H](CO)CC(C)C	79µM*
c1nc(NCCN2CCOCC2)c2cc(-c3ccoc3)ccc2n1	-5%
C=C1C(=O)O[C@@H]2[C@H]3O[C@]3(C)CCC=C(C)CC[C@@H]12	-8%&-24%
COCCn1c(=O)c(CCc2ccccc2)nc2cnc(N3CCOCC3)nc21	-30%
CCSC(=N)N	-19%&-8%&-27%
COc1cccc(Nc2ncc3ncc(=O)n(C[C@H]4CCCO4)c3n2)c1	-12%
Cc1cnc(CNc2cc(-c3ccc(C(=O)N(C)C)cc3)ncn2)cn1	-11%
CC(C)NC(=O)N1CC[C@@]2(CCCN(S(=O)(=O)c3ccccc3)C2)C1	-25%
COc1ccc(-c2nc3cnc(N4CCNCC4)nc3n(C)c2=O)cc1	?
COC(=O)C1OC(=O)C2OC23[C@]2(C)C(O)CC4C(C)(C)C(OC(C)=O)CC(OC(C)=O)[C@@]4(C)C2CC[C@@]13C (stereo partly specified)	-16%&-10%
COc1cccc(Nc2ncc3ncc(=O)n(CCc4ccccc4)c3n2)c1	-26%
Cc1cnc(SCC2CCCO2)nc1C1CCCN(C(=O)c2ccc(S(N)(=O)=O)cc2)C1 (stereo unspecified)	?

Following part:
SMILES	EPAC2 antag
CCNc1ncc2nc(-c3ccccc3)c(=O)n(CCc3ccccc3)c2n1	-21%
Cc1ccc2c(Br)cc(Br)c(O)c2n1	-26%
Cc1cccc(C)c1NC(=O)C[N+](C)(C)C	-31%
CC1(C)C(=O)C=C[C@@]2(C)C1C=C[C@@]1(C)C2CC[C@@]2(C)C(c3ccoc3)OC(=O)C3OC312 (stereo partly specified)	-11%
COC(=O)N[C@H](C(=O)N[C@@H](Cc1ccccc1)[C@@H](O)CN(Cc1ccc(-c2ccccn2)cc1)NC(=O)[C@@H](NC(=O)OC)C(C)(C)C)C(C)(C)C	-19%
C[C@@H](CN=[N+]=[N-])CN1CC[C@H](NC(=O)OCc2ccccc2)CCC1=O	-15%
CN(Cc1ccco1)c1cc(-c2ccoc2)ncn1	34%[activator]
COCc1nc2c([nH]1)c(=O)n(C)c(=O)n2CC(C)C	1%
COc1cccc2oc(-c3ccccc3)cc(=O)c12	?
O=C(O)COc1ccc(OCCNC[C@H](O)COc2ccccc2)cc1	-8%
Cc1c(C(=O)NN2CCCCC2)nn(-c2ccc(Cl)cc2Cl)c1-c1ccc(Cl)cc1	-25%
COc1cc(C)c(CN2CCc3nnc(C(C)NC(=O)c4cccnc4)n3CC2)cc1C (stereo unspecified)	?
COC(=O)c1ccccc1NS(C)(=O)=O	?
COc1cccc(-c2cncnc2NCc2cccnc2)c1	-19%
COc1ccc(Oc2ncc3nc(CCc4ccccc4)c(=O)n(C[C@H]4CCCO4)c3n2)cc1	-3%
CC(=O)c1cc2c(cc1O)OC(C)(C)C=C2	?
COc1cc(=O)n2c(c1C(=O)N(C)Cc1nccs1)CCN(Cc1c(F)ccc(F)c1F)CC2	-4%
CC(=O)SCC[N+](C)(C)C	4%
CNCC(O)c1cccc(O)c1 (stereo unspecified)	-9%
NC(=O)c1cc[n+](CC2=C(C(=O)O)N3C(=O)C(NC(=O)C(c4ccccc4)S(=O)(=O)[O-])C3SC2)cc1 (stereo unspecified)	26%
CCCCCCCCN1[C@@H](CC(=O)OC)c2cc(C(F)(F)F)ccc2S1(=O)=O	?
O=[N+]([O-])c1cccc2[nH]cnc12	-12%
CCC(C)c1ccc(O[C@@H]2O[C@H](CO)[C@@H](O)[C@H](O)[C@H]2NC(C)=O)cc1 (stereo partly specified)	17%
COCCNc1ncncc1-c1ccccc1OC	-7%

Of the compounds above, six contain a COOH group.
SMILES	EPAC2 antag
O=C(O)c1cccc(/C=C2/C[C@@H]3[C@@H](/C=C/[C@@H](O)C4CCCCC4)[C@H](O)C[C@@H]3O2)c1	3%
Nc1c(CC(=O)O)cccc1C(=O)c1ccccc1	-6%&17%
O=C(O)CCCCC(=O)O	-28%
NC(C(=O)O)c1ccc(P(=O)(O)O)cc1 (stereo unspecified)	3%
O=C(O)COc1ccc(OCCNC[C@H](O)COc2ccccc2)cc1	-8%
NC(=O)c1cc[n+](CC2=C(C(=O)O)N3C(=O)C(NC(=O)C(c4ccccc4)S(=O)(=O)[O-])C3SC2)cc1 (stereo unspecified)	26%

(next part)
SMILES	EPAC2 antag
CC1=C(CC(=O)O)c2cc(F)ccc2/C1=C\c1ccc(S(C)=O)cc1 (stereo unspecified)	?
COC(=O)C1=C(C)NC(C)=C(C(=O)OC)C1c1ccccc1[N+](=O)[O-]	?
Cc1cnc(CNc2ncncc2-c2ccccc2C#N)cn1	-6%
CCCCCCCN(c1ccccc1)C1C[C@H]2CCCC(=O)N3CC[C@@H](C1)[C@@H]23 (stereo partly specified)	?
CC1(C)S[C@@H]2[C@H](NC(=O)C3(N)CCCCC3)C(=O)N2[C@H]1C(=O)O	17%
CCCCOC(=O)CC(CC(=O)OCCCC)(OC(C)=O)C(=O)OCCCC	?
Cc1cc(O)c(C)c(O)c1C(=O)O	-9%
O=S1(=O)CCOC[C@H](CC2CCCCC2)N1Cc1cccc(C(F)(F)F)c1	18µM*
CN(C)c1ncc2nc(-c3ccccc3)c(=O)n(Cc3ccc(F)cc3)c2n1	4%
COC(=O)CC1[C@@]2(C)C[C@]34OC5(C)OC6(C7CC(=O)OC(c8ccoc8)[C@]7(C)CCC6(O5)[C@]13C)C(OC(C)=O)[C@]4(OC(C)=O)C2OC(C)=O (stereo partly specified)	-5%
Cc1cc[n+](CCC2CCCCC2)cc1	-10%
CN(C)c1ncc2nc(-c3cccs3)c(=O)n(CCC#N)c2n1	113%[activator]
COc1ccccc1CNc1cc(-c2c(C)noc2C)ncn1	-17%
CCn1c(-c2ccccc2F)nc2cc(C(=O)NC(c3ccccn3)C(F)(F)F)cc(NC(C)=O)c21 (stereo unspecified)	-3%
Cc1ncc(COP(=O)(O)O)c(C=O)c1O	13%
COc1ccccc1CN1CC[C@@]2(CCCN(S(=O)(=O)c3ccccc3)C2)C1	-6%
O=C(c1cc(C(F)(F)F)cc(C(F)(F)F)c1)N1CCC2(CCN(Cc3nccs3)CC2)CC1	-17%
O=C(NCCN1CCOCC1)c1cnn(-c2nccc(-c3ccccc3F)n2)c1C1CC1	-3%
CCCCCCCCCCCCCC[N+](C)(C)C	-8%
Cc1cccc(CNc2cc(-c3ccccc3Cl)ncn2)c1	-26%
NC(N)=NC(N)=NCCc1ccccc1	4%
O=C(c1cccc(F)c1)N1CCC2(CCCN(c3ncccn3)C2)CC1	-19%
COc1ccc(CNc2ncncc2-c2ccccc2CN(C)C)c(OC)c1	-30%
O=C(c1cccc(F)c1)N1CCC2(CCCN(C(c3ccccc3)c3ccccc3)C2)CC1	-30%
O=C(O)CCCC[C@@H]1SC[C@H]2NC(=O)N[C@@H]12	-12%
CN(N=O)C(=O)N[C@H]1C(O)C(O)C(CO)O[C@@H]1O (stereo partly specified)	-6%
CC(=O)C[C@H]1c2cc(C(F)(F)F)ccc2S(=O)(=O)N1Cc1ccccc1	?
CN1CCN(c2ncc3nc(-c4ccccc4)c(=O)n(-c4ccccc4)c3n2)CC1	-18%
c1ccc(Nc2ncnc3ccc(-c4ccoc4)cc23)cc1	-18%
COc1ccc(Cl)cc1C(=O)NCCc1ccc(S(=O)(=O)NC(=O)NC2CCCCC2)cc1	-5%&-17%&-27%&-18%&-19%
COc1ccccc1-c1nccc(NCc2cccs2)n1	-15%
COc1cc(=O)n2c(c1C(=O)N(C)Cc1nonc1C)CCN(Cc1ccccc1F)CC2	-16%
CCc1nc2cc(C(=O)N[C@H]3CCCCNC3=O)cc(NC(=O)c3ccccc3OC)c2n1C	-12%
CC[C@@H]1[C@H]2CCCC(=O)N3CC[C@@H](C[C@H]1O)[C@@H]23	-1%
Cc1ccc(C(=O)Nc2cccc(-c3nc(CNC(=O)C4(C)CC4)c(C)o3)c2)s1	-3%
COC(=O)[C@H]1[C@H]2C[C@@H]3c4[nH]c5cc(OC)ccc5c4CCN3C[C@H]2C[C@H](OC)[C@@H]1OC	20%
CN(C)Cc1ccccc1-c1cc(N(C)C)ncn1	-12%

6 consecutive compounds out of the list so far, for reference:
SMILES	EPAC2 antag
O=C(O)CCCC[C@@H]1SC[C@H]2NC(=O)N[C@@H]12	-12%
CN(N=O)C(=O)N[C@H]1C(O)C(O)C(CO)O[C@@H]1O (stereo partly specified)	-6%
CC(=O)C[C@H]1c2cc(C(F)(F)F)ccc2S(=O)(=O)N1Cc1ccccc1	?
CN1CCN(c2ncc3nc(-c4ccccc4)c(=O)n(-c4ccccc4)c3n2)CC1	-18%
c1ccc(Nc2ncnc3ccc(-c4ccoc4)cc23)cc1	-18%
COc1ccc(Cl)cc1C(=O)NCCc1ccc(S(=O)(=O)NC(=O)NC2CCCCC2)cc1	-5%&-17%&-27%&-18%&-19%
